A647 fluor: A647 region autofluorescence; max dye-equivalent concentration, M; 59,000 tested, under 10 active; Compound fluorescence, A647 channel (570/671 nm), Tris buffer; active means above 1 µM dye equivalent; inconclusive means 0.1 to 1 µM; inactive means 0.1 µM or less;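 further: values scaled relative to a standard on each plate; highest value over a series up to 38 µM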
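Tris 100 mM pH 8.0; cpd + A647 stds pin-transferred; 15 min RT; CCD imager, ex 570/em 671. Output = A647-equivalent conc. per cpd conc.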
Resorufin autofl: resorufin region autofluorescence; max dye-equivalent concentration, M; 59,000 compounds, 0.04% hits; Compound fluorescence, resorufin region 547/598 nm, buffer; stronger effect = higher value; active = above 10 nM dye equivalent; inconclusive = 1 to 10 nM; inactive = 1 nM or less; a few of its hits are not listed in these tables; further: highest value over a series up to 38 µM
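Tris 100 mM pH 8.0; compound added, 15 min RT; CCD imager read, ex 547 nm/em 598 nm; signal normalized to resorufin standard curve (six concentrations per plate) as dye-equivalent concentration.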
A488 fluor: A488 region autofluorescence; compound autofluorescence, A488 spectral region, dye equivalency; stronger effect = higher value; max dye equivalency, M; 59,000 compounds, 0.1% hits; AID 591; active = above 10 nM dye equivalent; inconclusive = 1 to 10 nM; inactive = 1 nM or less; about half of its hits are not listed in these tables;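 further: highest value over a series up to 38 µM; compound alone in buffer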
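Spectroscopic profiling in the A488 region: compounds in pH 8.0 Tris (100 mM), 15 min RT, CCD imaging with 480 nm excitation and 540 nm emission; responses normalized against A488 dye standards.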
AID923: qHTS Assay for Allosteric/Competitive Inhibitors of Caspase-1: Spectroscopic Profiling in AFC Spectral Region. Potency, µM (series often up to 57.5 µM), for the others: at the highest dose fluorescence increase, most hits filed as activators. compound fluorescence, AFC spectral region (405/520 nm); almost no hit is shown here. 75,000 compounds, 1.1% hits; active means well fitted activation curve with a large enough effect; inconclusive means small, poorly fitted or top-dose-only effect;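 further: potency means the concentration at half of the fitted maximal effect; 0% is about no effect; scaled to a free AFC standard on each plate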
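Baseline compound fluorescence (AFC region, 405 nm ex/520 nm em) taken from the intercept of kinetic reads with 50 nM caspase-1 and 5 uM Ac-WEHD-AFC; normalized to an on-plate AFC standard curve; compounds titrated up to 57 uM.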
TSHR agonist: activates the human thyroid stimulating hormone receptor; Potency, µM (highest dose often 57.1 µM), for inactives: top-dose activation, most hits filed as activators; P16473; HEK293-CNG-TSHR cells (CNG channel as cAMP sensor), membrane potential dye, cAMP; 73,000 compounds, 0.48% hits; active = well fitted activation curve of enough size with the parental cells flat; inconclusive = any curve in the parental cells; inactive = parental cells flat and receptor cells flat or falling; further: potency means the concentration at half of the fitted maximal effect; % of control where 0% means no effect; weak receptor curves with flat parental cells got no call and are not listed
Target sequence (P16473 whole entry, looked up): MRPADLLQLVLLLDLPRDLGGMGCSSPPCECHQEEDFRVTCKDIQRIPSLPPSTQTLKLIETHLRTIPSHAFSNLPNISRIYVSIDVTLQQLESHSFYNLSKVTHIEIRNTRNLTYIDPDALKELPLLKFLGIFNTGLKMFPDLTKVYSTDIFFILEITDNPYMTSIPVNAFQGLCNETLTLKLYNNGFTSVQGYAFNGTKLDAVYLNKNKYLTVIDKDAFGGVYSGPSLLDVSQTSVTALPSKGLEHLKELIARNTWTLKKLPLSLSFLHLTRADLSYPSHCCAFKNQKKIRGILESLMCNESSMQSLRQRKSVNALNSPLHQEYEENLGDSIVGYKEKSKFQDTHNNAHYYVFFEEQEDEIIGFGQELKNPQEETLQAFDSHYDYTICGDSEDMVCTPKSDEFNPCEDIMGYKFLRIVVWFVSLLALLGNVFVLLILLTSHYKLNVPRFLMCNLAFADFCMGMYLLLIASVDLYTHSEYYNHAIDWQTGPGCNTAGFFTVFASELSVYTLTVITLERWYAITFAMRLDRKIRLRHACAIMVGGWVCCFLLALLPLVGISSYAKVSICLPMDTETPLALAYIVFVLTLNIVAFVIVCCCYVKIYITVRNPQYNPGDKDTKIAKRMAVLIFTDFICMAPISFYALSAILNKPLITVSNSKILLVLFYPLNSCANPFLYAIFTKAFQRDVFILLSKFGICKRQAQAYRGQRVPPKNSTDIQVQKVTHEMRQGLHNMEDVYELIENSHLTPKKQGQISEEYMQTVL
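HEK 293 cells stably expressing TSHR and a modified CNG channel, with CNG-only parental cells as counterscreen, were preloaded 60 min at room temperature with membrane potential dye containing 100 uM RO 20-1724. Compound exposure was 30 min, and depolarization was read as fluorescence at 590 nm.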
Active calls of the source: *; i = inactive; ? = inconclusive; . = not tested or not shown; [ ] = another dose, or the depositor's remark. An excerpt, so the mix of outcomes need not match the whole.

no.	Compound	Resorufin autofl	AID923	A488 fluor	TSHR agonist	A647 fluor
1	O=C(Nc1cccc(NS(=O)(=O)c2ccc(S(=O)(=O)NC3CC3)cc2)c1)c1ccccn1	i	0.2%	i	.	5e-09
2	C[C@@]12C=CC(=O)C=C1CC[C@@H]1C2=CC[C@]2(C)[C@@H]1CC[C@H]2C(=O)CN1CCN(c2cc(N3CCCC3)nc(N3CCCC3)n2)CC1	i	-2.9%	i	.	1e-09
3	CCCCn1c(=N)n(CC(O)COc2ccccc2)c2ccccc21 (configuration not stated)	i	-0.1%	i	?	1.6e-09
4	COc1cccc(-c2nnc3n2N=C(C(C)(C)C)CS3)c1	.	-1.5%	.	15%	.
5	O=C(Nn1cnnc1)C1Cc2ccccc2CN1S(=O)(=O)c1ccc(F)cc1 (configuration not stated)	.	0.1%	.	8%[11.4 µM]	.
6	CCN(C(=O)c1c(OC)cccc1OC)c1nnc(-c2cccnc2)s1	i	0.6%	i	6%	1e-09
7	O=C1C(SCCO)=C(SCCO)C(=O)c2ccccc21	i	13%	i	?	4.6e-08
8	CCOC(=O)c1cn(CC)c2ccc(S(=O)(=O)N3CC(C)CC(C)C3)cc2c1=O (configuration not stated)	i	1.6%	i	-6%	7.7e-09
9	O=P(O)(CN1CCCCC1)CN1CCCCC1	.	1.4%	.	-6%	.
10	Cc1ccc(N(CC(=O)Nc2ccc(F)c(Cl)c2)S(=O)(=O)c2c(C)noc2C)cc1	i	0.3%	i	4%	2.2e-08
11	CCOC(=O)N1CCN(C(=O)C2CCN(Cc3nc(-c4ccccc4C)oc3C)CC2)CC1	.	2.1%	.	5%	.
12	CCOC(=O)N1CCC(N(CCCOC)C(=O)Nc2cccc(OC)c2)CC1	i	-1.8%	i	2%	7.8e-09
13	CN(Cc1ccco1)c1cc(-c2ccccc2Cl)ncn1	i	1.2%	i	10%	9.1e-09
14	c1ccc(-c2cc(-c3cc(-c4ccccn4)[nH]n3)n[nH]2)nc1	i	-0.8%[11.5 µM]	i	-3%[11.4 µM]	1e-09
15	COc1ccc(CCn2nnnc2C(C(C)C)N2CCN(c3ncccn3)CC2)cc1OC (configuration not stated)	i	-0.7%	i	6%	3.9e-08
16	O=C(CCN1CCCCC1)NCC1OCCc2ccccc21 (configuration not stated)	i	-1.8%	i	-6%	9.1e-09
17	CCOC(=O)CSc1nc2ccccc2c(=O)n1C1CCCC1	i	-0.9%	i	18%	3e-08
18	CCOc1ccc(S(=O)(=O)N(C)CCO)cc1-c1nc2c(C(C)(C)C)nn(C)c2c(=O)[nH]1	i	.	i	.	1e-09
19	COC(=O)[C@H](C)NC(=O)Nc1ccc(OC(F)(F)F)cc1	i	0.0%	i	-11%	1e-09
20	CCCCOC(=O)C(C#N)c1nc2ccccc2nc1N1CCOCC1 (configuration not stated)	i	11%	?	.	5.9e-09
21	CC(=O)ON1C(C)(C)CC(OC(=O)c2ccccc2)CC1(C)C	i	0.6%	i	?	1.4e-09
22	COc1ccc(C(=O)C(c2ccccc2)N2CCOCC2)cc1 (configuration not stated)	i	3.0%	i	18%	5.5e-09
23	CCN(CC)C(=O)Nc1cnc2ccccc2c1	.	-0.4%	.	?	.
24	CCCCn1c(=O)n(CC(=O)Nc2c(CC)cccc2CC)c(=O)c2c1nc(CO)n2CCC	i	-0.7%	i	?	2e-08
25	CN(CC(=O)NCc1ccc(Cl)cc1)S(=O)(=O)c1cccc2nsnc12	i	1.3%	i	-8%	1e-09
26	O=C(c1[nH]o[n+](=O)c1C(=O)c1csc2ccccc12)c1csc2ccccc12	i	0.6%[11.5 µM]	i	3%[11.4 µM]	1e-09
27	C[C@H]1CS(=O)(=O)CCN1/N=C\c1ccc([N+](=O)[O-])o1	i	-1.2%[25.7 µM]	i	68%[25.6 µM]	2.4e-09
28	CCOC(=O)c1ccc(NCc2ccc3c(c2)OCO3)cc1	i	0.3%	i	16%	3.1e-08
29	O=C(c1ccco1)N1CCCN(C(=O)c2ccco2)CC1	i	0.5%	i	0%	1.9e-09
30	N[C@@H](Cc1nn[nH]n1)C(=O)O	i	7.1%[11.5 µM]	i	-5%[11.4 µM]	1e-09
31	O=C(O)CSc1nnc(Cn2cnc3ccccc32)n1CCc1ccccc1	i	-0.4%	i	5%	1e-09
32	Cc1cc(C)cc(OCCCCCNCCO)c1	.	1.0%	.	16%	.
33	O=C(c1ccco1)N1CCN(CC(O)Cn2c3ccccc3c3ccccc32)CC1 (configuration not stated)	i	-1.1%	i	?	1.6e-08
34	Cc1ccc2oc(-c3ccc(NC(=O)c4cccnc4)cc3)nc2c1	i	-0.2%	i	2%	2.3e-08
35	OC(Cn1cncn1)c1ccc(Cl)cc1 (configuration not stated)	i	-1.8%	i	1%	1e-09
36	CCN(CC)S(=O)(=O)c1ccc(Cl)c(C(=O)Nc2nncs2)c1	i	-3.4%	i	-4%	2e-09
37	COCCN1C(=O)C(CC(=O)Nc2ccc(C(=O)O)cc2)SC1=Nc1ccccc1 (configuration not stated)	i	2.3%	i	5%	2e-08
38	O=C(Nn1c(=O)[nH]c2ccsc2c1=O)c1ccccc1	i	-0.3%	i	2%	1.9e-08
39	Cc1ccc(CN2CCN(C(=O)CCN3C(=O)c4ccccc4C3=O)CC2)cc1	.	-0.9%	.	1%	.
40	COc1ccc(S(=O)(=O)Nc2cccc(Cl)c2)cc1OC	i	-1.5%	i	.	1e-09
41	CN(C)c1nc2c(c(=O)n(C)c(=O)n2C)n1CC(=O)c1cccs1	i	-0.2%	i	7%[11.4 µM]	1e-09
42	CCOc1ccc2[nH]c(=O)c(CN(CCO)C(=O)c3ccc(Br)cc3)cc2c1	i	-0.2%	i	5%	1e-09
43	O=C(COC(=O)c1ccco1)Nc1cccc(Br)c1	i	-0.3%	i	-5%	1e-09
44	CCOC(=O)Cn1c(=O)oc2cc(S(=O)(=O)N3CCc4ccccc43)ccc21	.	-0.2%	.	2%	.
45	O=C(c1ccco1)N1CCN(CCOCCOc2cccc3ccccc23)CC1	i	.	i	.	1e-09
46	CCn1c(SCC(=O)Nc2ccc(S(=O)(=O)Nc3ccccn3)cc2)nnc1-c1ccncc1	i	0.6%	i	8%	1.9e-09
47	Cc1onc(-c2ccccc2Cl)c1C(=O)Nc1c(C)n(C)n(-c2ccccc2)c1=O	.	0.8%	.	2%	.
48	Cc1ccc(Cn2ncc3c(N4CCOCC4)ncnc32)cc1	i	.	i	.	2.5e-09
49	Cc1cc(C)n(CC(=O)O)n1	i	2.7%	i	-1%	1.1e-08
50	CC(C)C(=O)Nc1cc2c(cc1C(=O)c1ccccc1)OCCO2	i	0.3%	i	3%	9.7e-09
51	Nc1nncn1C(=O)c1cc(Br)ccc1Cl	i	-0.1%	i	4%	2.2e-08
52	O=C(CN1C(=O)C2C3C=CC(C3)C2C1=O)Nc1nc(SCc2ccc(Cl)cc2)n[nH]1 (configuration not stated)	i	-1.7%	i	?	1.6e-08
53	COC1Cc2ccccc2N(C(=O)N2CCN(CCO)CC2)c2ccccc21 (configuration not stated)	i	3.8%	i	9%	1.8e-08
54	O=C(Nc1ccccc1C(=O)N1CCOCC1)c1cccc(S(=O)(=O)N2CCCC2)c1	i	0.8%	i	-4%	2.5e-08
55	Nc1nc2c(nc(Br)n2[C@@H]2O[C@H]3COP(=O)(O)O[C@H]3[C@@H]2O)c(=O)[nH]1	.	-0.4%	.	3%	.
56	CCCNS(=O)(=O)c1ccc(CCC(=O)NCc2ccco2)cc1	i	1.0%	i	7%	2.9e-08
57	CC(=O)NCCNc1nc(-c2cccc(C#N)c2)nc2ccccc12	i	-1.0%	i	-5%	3.5e-08
58	O=C(CN1CCN(c2ccccn2)CC1)Nc1ccc(OCc2ccccc2)cc1	i	0.8%	i	12%	4e-08
59	CC(=O)c1c(N2CCN(C(=O)C3CCCO3)CC2)nc(=S)n(-c2ccccc2)c1C (configuration not stated)	i	-1.9%	i	0%	1.1e-09
60	O=C(CN(C(=O)c1ccc2c(c1)OCCO2)c1ccccc1)NCC1CCCO1 (configuration not stated)	i	-0.5%	i	-2%	1e-09

The list continues.
no.	Compound	Resorufin autofl	AID923	A488 fluor	TSHR agonist	A647 fluor
61	COc1ccc(-c2ccnc(SCC(=O)N3CCOCC3)n2)cc1	i	8.5%	i	0%	1e-09
62	Cc1nc(CCNC(=O)c2ccccc2)cs1	i	-0.2%	i	-6%[11.4 µM]	1e-09
63	COc1cccc(OC)c1C(=O)Nc1ccc2c(c1)OCCO2	.	0.3%	.	27%	.
64	Cn1nnc2cc(C(=O)N3CCC(c4ccccc4)C3)ccc21 (configuration not stated)	i	-0.1%	i	0%	3.2e-09
65	Nc1nnnn1/N=C/c1ccccn1	i	.	i	.	3.2e-09
66	COC(=O)c1sccc1NC(=O)c1ccc(Br)o1	.	5.2%	.	?	.
67	COc1ccc(-c2noc(Cc3cccs3)n2)cc1	.	-2.0%	.	-3%	.
68	CCN1CCC(C(=O)NC2CCCC2)(N(Cc2cccs2)C(=O)Cn2nnc3ccccc32)CC1	i	0.3%	i	8%	1.3e-08
69	COC(=O)C1=C(N)Oc2cc(C)n(CCCn3ccnc3)c(=O)c2C1c1ccc(Cl)cc1 (configuration not stated)	i	-0.3%	i	-9%	2e-08
70	COc1ccc(S(=O)(=O)N2CCCC2)c(C)c1C	i	-1.5%	i	-2%	8.9e-09
71	Cc1cc(C)n(-c2ccc(C(=O)C(C#N)c3nc4ccccc4n3C)cc2)n1 (configuration not stated)	i	1.1%	i	6%	1e-09
72	COc1nc(NCC(C)C)nc(Oc2ccc(OCc3ccccc3)nn2)n1	i	0.5%	i	9%	2.5e-09
73	COc1cc(C(=O)Nc2ccc3c(c2)OCCO3)ccc1OC(F)F	i	0.5%	i	?	1.8e-08
74	O=C(NCC1CCCO1)c1ccc2c(c1)N(Cc1ccccc1)C(=O)CS2=O (configuration not stated)	.	-0.8%	.	2%	.
75	C=CCn1cnc2c(c1=O)c1nc3ccccc3nc1n2-c1ccc(Cl)cc1	i	.	i	.	6.7e-09
76	CC(=O)c1ccc(CCCC(=O)O)cc1	.	0.1%	.	6%[11.4 µM]	.
77	CC1=CC(C)(C)N(C(=O)c2ccc(F)cc2)c2cc3c(cc21)OCO3	i	2.9%	i	?	1.2e-08
78	CCn1c(SCC(=O)Nc2nccs2)nnc1-c1cc2cccc(OC)c2o1	i	0.7%	i	3%	3.1e-08
79	COCCNC(=O)c1cc(-c2cccc(OC)c2)on1	i	0.8%	i	-2%	1e-09
80	C=CCn1c(N)c(C(=O)NCCC2=CCCCC2)sc1=S	i	-1.4%	i	-18%	1.2e-08
81	CC1(C)CC(=O)C=C(Nc2ccc(F)cc2F)C1	.	0.5%	.	22%	.

A few values from the list.
Reading of `CCn1c(SCC(=O)Nc2nccs2)nnc1-c1cc2cccc(OC)c2o1` under AID923: 0.7%
Reading of `COC(=O)C1=C(N)Oc2cc(C)n(CCCn3ccnc3)c(=O)c2C1c1ccc(Cl)cc1` (configuration not stated) under A647 fluor: 2e-08
Reading of `CC1(C)CC(=O)C=C(Nc2ccc(F)cc2F)C1` under TSHR agonist: 22%

Reformatted screen by screen: 2 of the compounds above.
#75 C=CCn1cnc2c(c1=O)c1nc3ccccc3nc1n2-c1ccc(Cl)cc1
#56 CCCNS(=O)(=O)c1ccc(CCC(=O)NCc2ccco2)cc1
Screen / compound no. | 75 | 56
Resorufin autofl | i | i
AID923 | . | 1.0%
A488 fluor | i | i
TSHR agonist | . | 7%
A647 fluor | 6.7e-09 | 2.9e-08

High-throughput results from PubChem BioAssay.
